# Bioassay records deposited in PubChem BioAssay by Broad Institute.
# Ran FRET = RanGTP/importin-beta interaction disruptors – biochemical, CFP-Ran/YFP-importin-beta FRET, RCC1, cell-free, primary screen (AID 434961); CFP-Ran/YFP-importin-beta FRET, cell-free; stronger effect = higher value; inhibition, %; 7,700 tested, 0.2% active;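 active = more than half of the replicate wells above 15% inhibition; inconclusive = exactly half above it; inactive = fewer than half above it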;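 also: 0% = DMSO wells and 100% inhibition = RanGDP control wells on each plate; stock of unstated strength diluted about 400-fold; mean of two wells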
# Active calls of the source: *; ? = inconclusive. Only part of the results is shown, so the mix of outcomes need not match the whole.
C[C@H](CO)N1C[C@H](C)[C@@H](CN(C)C(=O)Nc2ccc(F)cc2)Oc2ccc(NC(=O)NC3CCCCC3)cc2CC1=O
  Ran FRET: 1.4
C[C@@H]1CN([C@@H](C)CO)C(=O)c2cc(NC(=O)c3ccccc3)ccc2O[C@@H](C)CCCCO[C@@H]1CN(C)C(=O)Nc1ccccc1
  Ran FRET: 1.2
C[C@H]1CCCCO[C@@H](CN(C)C(=O)c2ccccc2)[C@@H](C)CN([C@@H](C)CO)C(=O)c2cc(NS(=O)(=O)c3ccccc3)ccc2O1
  Ran FRET: -3.3
Cc1noc(C)c1S(=O)(=O)N(C)C[C@H]1Oc2ccc(NS(=O)(=O)c3cccs3)cc2CC(=O)N([C@@H](C)CO)C[C@@H]1C
  Ran FRET: ?
COc1ccc(NC(=O)N(C)C[C@@H]2Oc3ncc(C#Cc4ccc(F)cc4)cc3C(=O)N([C@H](C)CO)C[C@@H]2C)cc1
  Ran FRET: -5.6
C[C@@H]1CN([C@H](C)CO)C(=O)c2cc(NC(=O)Nc3ccc(C(F)(F)F)cc3)ccc2O[C@H]1CN(C)C(=O)NC1CCCCC1
  Ran FRET: 1.4
C[C@@H]1CN([C@@H](C)CO)C(=O)c2cc(NS(C)(=O)=O)ccc2O[C@@H](C)CCCCO[C@@H]1CN(C)S(=O)(=O)c1cn(C)cn1
  Ran FRET: -1.3
C[C@H](CO)N1C[C@H](C)[C@H](CN(C)C(=O)C2CC2)OCc2cnnn2CCCC1=O
  Ran FRET: -0.6
C[C@H](CO)N1C[C@H](C)[C@@H](CN(C)C(=O)Nc2ccc3c(c2)OCO3)Oc2ccc(NS(=O)(=O)c3ccc(Cl)cc3)cc2C1=O
  Ran FRET: -6.8
COc1ccc(CN(C)C[C@@H]2Oc3ccc(NS(=O)(=O)c4ccc(OC)cc4)cc3C(=O)N([C@@H](C)CO)C[C@H]2C)cc1
  Ran FRET: 4.7

Cc1noc(C)c1NC(=O)Nc1ccc2c(c1)C(=O)N([C@H](C)CO)C[C@H](C)[C@H](CN(C)C(=O)Nc1c(C)noc1C)O2
  Ran FRET: -2.8
CNC[C@H]1Oc2ccc(NC(=O)Nc3ccccc3)cc2CC(=O)N([C@@H](C)CO)C[C@@H]1C
  Ran FRET: 1.0
COc1ccc(S(=O)(=O)Nc2ccc3c(c2)C(=O)N([C@H](C)CO)C[C@@H](C)[C@H](CN(C)C)O3)cc1
  Ran FRET: 4.6
COc1ccc(S(=O)(=O)Nc2ccc3c(c2)C(=O)N([C@@H](C)CO)C[C@H](C)[C@@H](CN(C)Cc2ccncc2)O3)cc1
  Ran FRET: 3.7
CC(C)NC(=O)N(C)C[C@@H]1Oc2ccc(N(C)C)cc2CC(=O)N([C@H](C)CO)C[C@H]1C
  Ran FRET: 2.5
C[C@@H]1CN([C@@H](C)CO)C(=O)c2cc(N(C)C)ccc2O[C@@H]1CN(C)C
  Ran FRET: -1.6
C[C@H](CO)N1C[C@H](C)[C@@H](CN(C)Cc2ccc(Oc3ccccc3)cc2)Oc2c(NS(=O)(=O)c3cn(C)cn3)cccc2C1=O
  Ran FRET: 2.6
C[C@@H]1CCCCO[C@@H](CN(C)C)[C@@H](C)CN([C@H](C)CO)C(=O)c2cc(NC(=O)Nc3ccccc3)ccc2O1
  Ran FRET: -0.8
C[C@H]1CN([C@@H](C)CO)C(=O)Cc2cc(NC(=O)C3CC3)ccc2O[C@@H]1CN(C)C
  Ran FRET: 5.9
C[C@@H]1CCCCO[C@H](CN(C)C)[C@H](C)CN([C@H](C)CO)C(=O)c2cc(NC(=O)CCC(F)(F)F)ccc2O1
  Ran FRET: -2.0

Cc1noc(C)c1NC(=O)Nc1ccc2c(c1)C(=O)N([C@@H](C)CO)C[C@H](C)[C@H](CN(C)C(=O)C1CCCCC1)OCCCC[C@@H](C)O2
  Ran FRET: -0.4
C[C@@H]1CCCCO[C@H](CN(C)C)[C@H](C)CN([C@@H](C)CO)C(=O)c2cc(NC(=O)CCC(F)(F)F)ccc2O1
  Ran FRET: ?
COc1ccc(CN(C)C[C@H]2Oc3ccc(NC(=O)c4ccncc4)cc3CC(=O)N([C@@H](C)CO)C[C@H]2C)cc1
  Ran FRET: 1.3
CNC[C@@H]1Oc2ccc(NC(=O)Nc3ccccc3)cc2CC(=O)N([C@H](C)CO)C[C@@H]1C
  Ran FRET: 1.1
Cc1noc(C)c1NC(=O)N(C)C[C@H]1OCCCC[C@H](C)Oc2ccc(NS(C)(=O)=O)cc2C(=O)N([C@H](C)CO)C[C@@H]1C
  Ran FRET: -2.2
C[C@H](CO)N1C[C@H](C)[C@@H](CN(C)C(=O)Nc2cccc(Oc3ccccn3)c2)OCc2cn(nn2)CCCC1=O
  Ran FRET: -3.0
C[C@@H]1CN([C@@H](C)CO)C(=O)Cc2cc(NC(=O)Cc3ccccc3)ccc2O[C@@H]1CN(C)C(=O)Nc1ccc(F)cc1
  Ran FRET: ?
C[C@@H]1CCCCO[C@@H](CN(C)C)[C@H](C)CN([C@@H](C)CO)C(=O)c2cc(NS(=O)(=O)c3ccc(Cl)cc3)ccc2O1
  Ran FRET: -1.7
C[C@@H]1CN([C@H](C)CO)C(=O)Cc2cc(NS(C)(=O)=O)ccc2O[C@H]1CN(C)C(=O)Nc1ccccc1
  Ran FRET: -1.3
C[C@H]1CN([C@@H](C)CO)C(=O)Cc2cc(NC(=O)NC3CCCCC3)ccc2O[C@H]1CN(C)C(=O)Nc1cccc2ccccc12
  Ran FRET: 1.7

# By substructure: the compounds so far containing a Cl atom
C[C@H](CO)N1C[C@H](C)[C@@H](CN(C)C(=O)Nc2ccc3c(c2)OCO3)Oc2ccc(NS(=O)(=O)c3ccc(Cl)cc3)cc2C1=O
  Ran FRET: -6.8
C[C@@H]1CCCCO[C@@H](CN(C)C)[C@H](C)CN([C@@H](C)CO)C(=O)c2cc(NS(=O)(=O)c3ccc(Cl)cc3)ccc2O1
  Ran FRET: -1.7

# Carrying on.
C[C@@H]1CCCCO[C@H](CN(C)C(=O)c2ccncc2)[C@@H](C)CN([C@H](C)CO)C(=O)c2cc(NC(=O)CCCN(C)C)ccc2O1
  Ran FRET: -7.3
C[C@@H]1CN([C@H](C)CO)C(=O)c2cccc(NS(C)(=O)=O)c2O[C@@H]1CN(C)S(=O)(=O)c1cn(C)cn1
  Ran FRET: -3.3
C[C@@H]1CN([C@@H](C)CO)C(=O)c2cc(NC(=O)CCC(F)(F)F)ccc2O[C@@H](C)CCCCO[C@@H]1CN(C)C(=O)Nc1ccccc1
  Ran FRET: -1.7
COc1ccc(S(=O)(=O)Nc2ccc3c(c2)CC(=O)N([C@@H](C)CO)C[C@@H](C)[C@@H](CN(C)Cc2ccc(C(=O)O)cc2)O3)cc1
  Ran FRET: ?
C[C@H]1CN([C@@H](C)CO)C(=O)Cc2cc(NC(=O)Cc3ccccc3)ccc2O[C@H]1CN(C)Cc1ccc(C(=O)O)cc1
  Ran FRET: 1.7
COc1ccc(S(=O)(=O)Nc2cccc3c2O[C@@H](CN(C)CC2CC2)[C@@H](C)CN([C@@H](C)CO)C3=O)cc1
  Ran FRET: -3.2
C[C@H](CO)N1C[C@H](C)[C@H](CN(C)CC2CC2)Oc2ccc(NC(=O)Cc3cn(C)c4ccccc34)cc2C1=O
  Ran FRET: 4.9
C[C@H](CO)N1C[C@H](C)[C@@H](CN(C)Cc2ccc3c(c2)OCCN3C)OCc2cn(nn2)CCCC1=O
  Ran FRET: 1.8
COc1ccc(-c2cnc3c(c2)C(=O)N([C@H](C)CO)C[C@H](C)[C@H](CN(C)C)O3)cc1
  Ran FRET: 2.2
C[C@H]1CN([C@@H](C)CO)C(=O)c2cccc(NC(=O)c3ccncc3)c2O[C@H]1CN(C)CC1CC1
  Ran FRET: 4.9

COc1ccc(S(=O)(=O)N(C)C[C@H]2Oc3c(NS(=O)(=O)c4c(C)noc4C)cccc3C(=O)N([C@@H](C)CO)C[C@H]2C)cc1
  Ran FRET: 0.0
C[C@@H]1CN([C@@H](C)CO)C(=O)c2cc(NS(=O)(=O)c3ccccc3)ccc2O[C@@H](C)CCCCO[C@H]1CN(C)C(=O)c1ccccc1
  Ran FRET: -5.2
Cc1noc(C)c1S(=O)(=O)Nc1ccc2c(c1)C(=O)N([C@H](C)CO)C[C@H](C)[C@@H](CN(C)C)OCCCC[C@H](C)O2
  Ran FRET: -5.0
C[C@@H]1CCCCO[C@H](CN(C)C)[C@H](C)CN([C@@H](C)CO)C(=O)c2cc(NS(=O)(=O)c3ccc(Cl)cc3)ccc2O1
  Ran FRET: 1.0
COc1ccc(S(=O)(=O)N(C)C[C@H]2Oc3ccc(NS(=O)(=O)c4cn(C)cn4)cc3CC(=O)N([C@@H](C)CO)C[C@H]2C)cc1
  Ran FRET: 3.0
Cc1noc(C)c1NC(=O)N(C)C[C@H]1Oc2c(NC(=O)c3ccc(-c4nccs4)cc3)cccc2C(=O)N([C@@H](C)CO)C[C@@H]1C
  Ran FRET: 0.5
COc1ccc(CN(C)C[C@@H]2Oc3ccc(NC(=O)CCC(F)(F)F)cc3C(=O)N([C@H](C)CO)C[C@H]2C)cc1
  Ran FRET: 4.4
COc1ccc(S(=O)(=O)N(C)C[C@@H]2Oc3ccc(NC(=O)Nc4ccc(C(F)(F)F)cc4)cc3C(=O)N([C@@H](C)CO)C[C@@H]2C)cc1
  Ran FRET: 1.5
Cc1noc(C)c1NC(=O)N(C)C[C@@H]1Oc2ccc(NC(=O)Nc3ccc4c(c3)OCO4)cc2CC(=O)N([C@@H](C)CO)C[C@@H]1C
  Ran FRET: -3.4
C[C@@H]1CCCCO[C@H](CN(C)Cc2ccc3c(c2)OCO3)[C@@H](C)CN([C@H](C)CO)C(=O)c2cc(NS(=O)(=O)c3ccccc3)ccc2O1
  Ran FRET: -1.9

C[C@@H]1CN([C@@H](C)CO)C(=O)Cc2cc(N(C)C)ccc2O[C@H]1CN(C)Cc1ccc(C(F)(F)F)cc1
  Ran FRET: -3.1
C[C@@H]1CN([C@@H](C)CO)C(=O)c2cc(NC(=O)Nc3ccc(F)cc3)ccc2O[C@@H]1CN(C)Cc1ccc2c(c1)OCO2
  Ran FRET: -2.2
CC(C)NC(=O)N(C)C[C@@H]1OCCCC[C@H](C)Oc2ccc(NC(=O)c3ccccc3)cc2C(=O)N([C@H](C)CO)C[C@@H]1C
  Ran FRET: 3.4
COc1ccc(S(=O)(=O)N(C)C[C@@H]2Oc3ccc(NS(=O)(=O)c4cn(C)cn4)cc3CC(=O)N([C@H](C)CO)C[C@H]2C)cc1
  Ran FRET: -1.1
CNC[C@H]1OCCCC[C@@H](C)Oc2ccc(NS(=O)(=O)c3ccccc3)cc2C(=O)N([C@@H](C)CO)C[C@@H]1C
  Ran FRET: -1.0
CNC[C@H]1Oc2c(N)cccc2C(=O)N([C@H](C)CO)C[C@H]1C
  Ran FRET: 1.0
Cc1cc(C(=O)Nc2cccc3c2O[C@@H](CN(C)C(=O)Nc2ccc(F)cc2)[C@H](C)CN([C@@H](C)CO)C3=O)n(C)n1
  Ran FRET: -0.1
C[C@@H]1CN([C@H](C)CO)C(=O)c2cccc(NS(=O)(=O)c3cccs3)c2O[C@@H]1CN(C)C(=O)Nc1ccc(C(F)(F)F)cc1
  Ran FRET: 4.1
C[C@H]1CN([C@@H](C)CO)C(=O)c2cc(NC(=O)Nc3ccc(F)cc3)ccc2O[C@@H]1CN(C)CC1CC1
  Ran FRET: 0.2
C[C@H](CO)N1C[C@H](C)[C@H](CN(C)C(=O)Nc2ccccc2)Oc2ccc(N(C)C)cc2CC1=O
  Ran FRET: 8.9

CC(C)NC(=O)N(C)C[C@H]1Oc2ccc(NC(=O)CCN3CCOCC3)cc2C(=O)N([C@@H](C)CO)C[C@@H]1C
  Ran FRET: 5.9
CC(C)NC(=O)Nc1ccc2c(c1)C(=O)N([C@H](C)CO)C[C@@H](C)[C@@H](CN(C)Cc1ccccc1)OCCCC[C@H](C)O2
  Ran FRET: -0.8
C[C@@H]1CN([C@H](C)CO)C(=O)CCCn2cc(nn2)CO[C@@H]1CN(C)C(=O)c1ccc(N2CCN(C)CC2)cc1
  Ran FRET: -3.3
C[C@H](CO)N1C[C@H](C)[C@@H](CN(C)C(=O)Nc2ccccc2)Oc2c(NC(=O)c3cnccn3)cccc2C1=O
  Ran FRET: 3.1
C[C@@H]1CN([C@H](C)CO)C(=O)Cc2cc(NC(=O)Cn3cnnn3)ccc2O[C@@H]1CN(C)S(=O)(=O)c1ccccc1
  Ran FRET: 2.5
C[C@H](CO)N1C[C@H](C)[C@H](CN(C)S(=O)(=O)c2cccs2)Oc2ccc(NC(=O)Nc3cccc4ccccc34)cc2CC1=O
  Ran FRET: -0.6
Cc1noc(C)c1NC(=O)N(C)C[C@H]1Oc2ccc(NC(=O)Cc3cn(C)c4ccccc34)cc2CC(=O)N([C@H](C)CO)C[C@@H]1C
  Ran FRET: 6.4
Cc1ccc(OC(=O)N(C)C[C@H]2OCc3cn(nn3)CCCC(=O)N([C@@H](C)CO)C[C@H]2C)cc1
  Ran FRET: -0.7
C[C@@H]1CCCCO[C@@H](CN(C)Cc2ccncc2)[C@@H](C)CN([C@@H](C)CO)C(=O)c2cc(NS(C)(=O)=O)ccc2O1
  Ran FRET: -4.2
C[C@@H]1CN([C@H](C)CO)C(=O)CCCn2nncc2CO[C@@H]1CN(C)C(=O)c1ccccc1
  Ran FRET: 0.7

C[C@H](CO)N1C[C@H](C)[C@@H](CN(C)C(=O)c2ccncc2)OCCCC[C@H](C)Oc2ccc(NS(=O)(=O)c3ccccc3)cc2C1=O
  Ran FRET: -0.7
COc1ccc(CN(C)C[C@H]2Oc3ccc(NC(=O)Nc4ccc(C(F)(F)F)cc4)cc3C(=O)N([C@@H](C)CO)C[C@H]2C)cc1
  Ran FRET: 31*
C[C@H](CO)N1C[C@H](C)[C@H](CN(C)Cc2ccc(C(=O)O)cc2)Oc2ccc(NC(=O)NC3CCCCC3)cc2C1=O
  Ran FRET: -1.0
C[C@@H]1CN([C@H](C)CO)C(=O)CCCn2cc(nn2)CO[C@@H]1CN(C)C(=O)C1CC1
  Ran FRET: -0.6
COc1ccc(NC(=O)N(C)C[C@H]2Oc3c(cccc3N(C)C)C(=O)N([C@@H](C)CO)C[C@H]2C)cc1
  Ran FRET: -2.7
